Compound activity from PubChem.
Methyltransferases = Primary Screen for Target Class Profiling of Small Molecule Inhibitors of Methyltransferases; purified enzyme, MTase-Glo SAH luminescence; active compounds read low; actives 3.9% (n = 25,000); calls only at 40 µM; AID 1745853, 2022; active = -50% or lower on at least one of six enzymes; inconclusive = the cases between; inactive = as a rule above -30% on all six;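 further: enzymes were COMT GAMT GNMT HNMT NNMT and PNMT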
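Each enzyme was assayed with SAM and its substrate. SAH formation detected by MTase-Glo luminescence; single-point 40 uM screen[…].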
Calls only; i = inactive; u = inconclusive; + = active, no number. On the % scale 0 is the no-effect control and ±100 the full control effect.

molecule | Methyltransferases
CC1(C(=O)NC2CCCCC2)Cn2nc(-c3cccs3)cc2C(=O)N1c1ccc(F)cc1F (centres undefined) | i
Cc1ccccc1CSc1nnc2n(CC(C)C)c(=O)c3cc(F)ccc3n12 | i
O=C(Cn1nc2n(CCc3ccccc3)c(=O)c3ccccc3n2c1=O)Nc1ccc(F)cc1F | i
CC(C)NC(=O)Cn1nc2n(C)c(=O)c3ccc(C(=O)NC4CCCCC4)cc3n2c1=O | i
Fc1cccc(-c2nnn3c2nc(N2CCCC2)c2cc(Cl)ccc23)c1 | i
CN(C)C(=O)c1ccc(OC2CCN(C(=O)c3ccc(C(F)(F)F)cc3)CC2)nc1 | i
COc1cccc(CNC(=O)N[C@@H]2CN(c3ncccn3)C[C@H]2CN(C)C)c1 | i
O=C(c1cc(F)ccc1F)N1CCC(Cc2noc(C3CC3)n2)C1 (centres undefined) | i
COc1ccc(OC)c(S(=O)(=O)N2CCc3nc(-c4ccc(F)cc4)ncc3C2)c1 | i
O=S(=O)(NCCC1=CCCCC1)c1cccc(-c2nc(-c3ccccc3)no2)c1 | i
CCCn1c(=O)c2ccccc2n2c(=O)n(CC(=O)NCc3ccc(OC)cc3)nc12 | i
Cc1nnc2ccc(N3CCC(NC(=O)C(C)C)CC3)nn12 | i
O=C(Nc1ccccc1)N1CCCC(C(=O)N2CCC(N3CCCC3=O)CC2)C1 (centres undefined) | i
CCOCCCNc1nc2c(S(=O)(=O)c3ccc(C)cc3)nnn2c2ccccc12 | i
COc1ccc(-c2cc3n(n2)CC(C)(C(=O)NC2CCCCC2)N(C(C)c2ccccc2)C3=O)cc1 (centres undefined) | i
CC1(C(=O)NC2CCCCCC2)Cn2c(cc3ccccc32)C(=O)N1Cc1ccco1 (centres undefined) | i
COCCN1C(=O)[C@H]2CN(Cc3ccc(C)s3)C[C@H]2C1=O | i
CN(CC(=O)N1CCC(CCOc2ccc(F)cc2)C1)S(=O)(=O)c1ccc2c(c1)oc(=O)n2C (centres undefined) | u
CC(C)NC(=O)c1ccc2c(=O)n(Cc3ccccc3)c3nn(CC(=O)NC4CCCCC4)c(=O)n3c2c1 | i
CC(C)CCNC(=O)C1(C)Cn2c(cc3ccccc32)C(=O)N1Cc1ccccc1Cl (centres undefined) | i
Cc1ccccc1CN1CC(=O)N(Cc2ccc(F)cc2)c2ccccc2S1(=O)=O | i
O=C1CCCC2=C1C(c1ccncc1Br)N=C(Nc1nc3ccccc3o1)N2 (centres undefined) | u
OC[C@H](Cc1ccccc1)Nc1nc(Oc2ccc3c(c2)CCC3)nc2c1ncn2Cc1ccc(-c2ccccc2)cc1 | +
Cc1ccn(CC(=O)N2CCCn3ccnc3C2c2cnn(C)c2)n1 (centres undefined) | i
Clc1ccc(C(Cn2ccnc2)OCc2c(Cl)cccc2Cl)c(Cl)c1 (centres undefined) | +
Cc1cc2c(cc1Cl)N(C(=O)Nc1ccnc3ccccc13)CC2 | +
Cc1ccc(C)c(S(=O)(=O)c2nnn3c2nc(NCCC(C)C)c2ccccc23)c1 | i
CC(O)C1C(=O)N2C(C(=O)O)=C(SC3CNC(C(=O)N(C)C)C3)C(C)C12 (centres undefined) | u
CCCOc1ccc(CN2C(=O)c3cc4occc4n3CC2(C)C(=O)NC2CCC(C)CC2)cc1 (centres undefined) | i
Cn1c(=O)c2ccc(C(=O)NC3CCCC3)cc2n2c(=O)n(Cc3ccccc3F)nc12 | i
COc1cccc(CNC(=O)c2cc3n(n2)CC(C)(C(=O)NCc2ccc(F)cc2)N(C)C3=O)c1 (centres undefined) | i
CC(C)NC(=O)c1ccc2c(=O)nc3c(-c4ccccc4)n[nH]n3c2c1 | i
c1cc(-c2noc([C@@H]3CCCN3Cc3ncc[nH]3)n2)cc(N2CCCC2)n1 | i
COc1ccc(NC(=O)N2CCC3(CC2)SCC(=O)N3c2ccc(F)cc2)cc1 | i
CCCn1c(=O)c2ccc(C(=O)NC3CCCC3)cc2n2c(=O)n(CC(=O)Nc3cccc(CC)c3)nc12 | i
CC(C)n1cc(CN2C[C@@H]3C(=O)N(Cc4ccc5c(c4)OCO5)C(=O)[C@@H]3C2)c2ccccc21 | i
CC1CCC(NC(=O)C2(C)Cn3c(ccc3-c3ccccc3)C(=O)N2CCc2ccccc2)CC1 (centres undefined) | i
C[C@]1(C2CCCC2)Cc2cc(OCC(=O)O)c(Cl)c(Cl)c2C1=O | +
Cc1ccccc1C(=O)NCc1cccnc1Oc1cccc(C(F)(F)F)c1 | i
CN1C(=O)c2cc(C(=O)NCc3ccccc3)nn2CC1(C)C(=O)NC1CCCCCC1 (centres undefined) | i
O=C(N1CCCCC1)C1(c2ccc(Cl)cc2)CCOCC1 | i
Cn1nccc1C(=O)N1CCC2(CCCN(Cc3cccc(F)c3F)C2=O)C1 (centres undefined) | i
O=C(NCc1ccc2c(c1)OCO2)c1nc(-c2ccc(F)cc2)c2cnccn12 | i
COC(=O)Cn1c(=O)oc2cc(S(=O)(=O)NCCc3sccc3C)ccc21 | i
OCCNC1CCCc2c1[nH]c1ccc(-c3ccccc3)cc21 (centres undefined) | i
Cc1ccc(CN2C(=O)c3ccc(-c4ccco4)n3CC2(C)C(=O)NC2CCCCCC2)cc1 (centres undefined) | i
COc1ccccc1CNC(=O)C1c2c(n(C)c3ccccc23)SCC(=O)N1c1ccc2c(c1)OCO2 (centres undefined) | i
CC1CCCC(NC(=O)C2(C)Cn3c(cc4occc43)C(=O)N2CCc2ccc(Cl)cc2)C1C (centres undefined) | i
CCCn1c(=O)c2ccc(C(=O)NCC(C)C)cc2n2c(=O)n(CC(=O)c3ccc(C)cc3C)nc12 | i
CC1=CC2C(CC1OC1OC(CO)C(O)C(O)C1O)C(C)CC(=O)C2C(C)C (centres undefined) | i
CC1CCCC(NC(=O)C2(C)Cn3c(cc4occc43)C(=O)N2c2ccc(Cl)cc2)C1C (centres undefined) | i
Cn1c2c(c3ccccc31)C(C(=O)NCc1ccccc1)N(C1CCCCCC1)C(=O)CS2 (centres undefined) | i
COc1ccc(-c2cc3n(n2)CC(C)(C(=O)NCc2ccccc2)N(c2cc(C)cc(C)c2)C3=O)cc1 (centres undefined) | i
CC(C)NC(=O)c1sc(=S)n2c1[nH]c(=O)c1ccc(C(=O)NC(C)CCc3ccccc3)cc12 (centres undefined) | i
Cn1c(=O)n(C)c2cc(S(=O)(=O)N3CCc4ccccc43)ccc21 | i
Cc1ccc(NS(=O)(=O)c2ccc3c(c2)[C@H]2C=CC[C@H]2[C@@H](c2ccccc2Cl)N3)cc1C | i
O=C1[C@H](CC[C@H](O)c2ccc(F)cc2)[C@@H](c2ccc(O)cc2)N1c1ccc(F)cc1 | u
Cn1c(CN2CCC(O)CC2)nnc1C1CCCN(Cc2ccccn2)C1 (centres undefined) | i
C=CCS(=O)(=O)N1CCC2(CCCN(CCCc3ccccc3)C2=O)C1 (centres undefined) | i
COC(=O)c1cc2n(n1)CC(C)(C(=O)NC1CCC(C)CC1)N(Cc1ccc(C)cc1)C2=O (centres undefined) | i

Other records
molecule | Methyltransferases
COc1ccc(C2COc3cc(O)ccc3C2)c(O)c1OC (centres undefined) | i
CC(C)Cn1c(=O)c2ccc(C(=O)NC3CCCC3)cc2n2c(=O)[nH]nc12 | i
CCCn1c(=O)c2cc(Cl)ccc2n2c(SCC(=O)Nc3ccc(C)cc3C)nnc12 | i
CCOc1ccc(C(=O)Nc2ccc3c(c2)C(=O)N(C)C2=NCCN23)cc1 | i
CCOC(=O)c1cc2n(n1)CC(C)(C(=O)NCc1ccccc1OC)N(c1ccccc1CC)C2=O (centres undefined) | i
O=C(OCc1ccccc1)N1CCOCC12CCN(Cc1c[nH]c3ccccc13)CC2 | +
O=c1[nH]nc2n1CCC(NS(=O)(=O)c1ccc(Cl)s1)CC2 (centres undefined) | i
CCCCN1C(=O)c2ccc(-c3ccco3)n2CC1(C)C(=O)NC1CCCCCC1 (centres undefined) | i
O=C(N[C@@H]1CN(Cc2c[nH]c3ccccc23)C[C@H]1CO)c1ccccc1 | i
CNc1cc(OC)c(C(=O)N[C@@H]2CCN(Cc3ccccc3)[C@@H]2C)cc1Cl | i
C[C@@H]1O[C@@H](O[C@H]2[C@H](OC(=O)[C@]34CCC(C)(C)C[C@H]3C3=CCC5[C@@]6(C)C[C@@H](O)[C@@H](O)[C@@](C)(CO)C6[C@H](O)C[C@@]5(C)[C@]3(C)CC4)OC[C@H](O)[C@@H]2O)[C@H](O)[C@H](O)[C@H]1O[C@@H]1OC[C@@H](O)[C@H](O[C@H]2O[C@H](C)[C@@H](O)[C@H](O)[C@@H]2O)[C@H]1O (some centres undefined) | i
CC(=O)O[C@H]1C(=O)[C@@]2(C)[C@H]([C@H](OC(=O)c3ccccc3)[C@]3(O)C[C@H](OC(=O)[C@H](O)[C@@H](NC(=O)c4ccccc4)c4ccccc4)C(C)=C1C3(C)C)[C@]1(OC(C)=O)CO[C@@H]1C[C@@H]2O | u
CC(C)Cn1c(=O)c2ccccc2n2c(SCc3ccccc3F)nnc12 | i
CCN(Cc1noc(C)n1)C(=O)c1coc(COc2ccc3c(c2)OCO3)n1 | i
CCc1ccccc1N1C(=O)c2c(C(=O)OC)ncn2CC1(C)C(=O)NC1CCCC1 (centres undefined) | i

Some of these compounds in order of molar mass, largest number first:
molecule | Methyltransferases
Cc1ccccc1CN1CC(=O)N(Cc2ccc(F)cc2)c2ccccc2S1(=O)=O | i
O=C(c1cc(F)ccc1F)N1CCC(Cc2noc(C3CC3)n2)C1 (centres undefined) | i
OCCNC1CCCc2c1[nH]c1ccc(-c3ccccc3)cc21 (centres undefined) | i

3 of the compounds above, as labelled records:
O=C(OCc1ccccc1)N1CCOCC12CCN(Cc1c[nH]c3ccccc13)CC2
  Methyltransferases: +

CC(C)Cn1c(=O)c2ccc(C(=O)NC3CCCC3)cc2n2c(=O)[nH]nc12
  Methyltransferases: i

CNc1cc(OC)c(C(=O)N[C@@H]2CCN(Cc3ccccc3)[C@@H]2C)cc1Cl
  Methyltransferases: i

Carrying on.
molecule | Methyltransferases
CC(C)CCn1c(=O)c2ccc(C(=O)NCC(C)C)cc2n2c(=O)n(Cc3ccc(Cl)cc3)nc12 | i
Cc1ccsc1CN1CCC2(CC1)Cc1ccccc1CNC2=O | i
Fc1ccc(OCc2nc(C3CCNCC3)no2)cc1 | i
CC(=O)N1CCC(N2CCOC[C@H]2c2ncc(-c3ccncc3)[nH]2)CC1 | i
COCC(=O)N(C[C@H]1O[C@@H](CC(=O)NC2CC2)[C@H](O)[C@@H]1O)C[C@H]1O[C@@H](CC(=O)NC2CC2)[C@H](O)[C@@H]1O | i
CC(C)C(C#N)O[C@@H]1O[C@H](CO[C@@H]2O[C@@H](C)[C@H](O)[C@@H](O)[C@H]2O)[C@@H](O)[C@H](O)[C@H]1O (some centres undefined) | i
Cn1cc(C(=O)Cc2ccccc2)cc1/C=C/C(=O)NO | u
CN1CCN([C@H]2[C@@H]3OC[C@@H](O3)[C@@H](NC(=O)Nc3ccccc3)[C@@H]2O)CC1 | i
Cc1c(NS(=O)(=O)c2ccc3c(c2)n(C)c(=O)n3C)c(=O)n(-c2ccccc2)n1C | i
CC(C)CC(=O)NCCn1cc(C(=O)O)c(=O)cc1C(O)c1ccccc1 (centres undefined) | i
Cc1ccc(Cl)cc1NC(=O)Cn1nc2n(CCCOC(C)C)c(=O)c3ccccc3n2c1=O | i
C=CCn1c(=O)c2ccc(C(=O)NC(C)C)cc2n2c(=O)n(CC(=O)Nc3ccc(C)cc3C)nc12 | i
CC(C)(C)C(=O)Nc1nc2c(s1)C[C@@H]1[C@](C)(CO)[C@H](O)CC[C@@]1(C)[C@@H]2CC(=O)NC1CC1 | i
Cn1cc(-c2ccc3c(n2)CN(Cc2ccc(F)cc2)C(=O)CO3)cn1 | i
CCCn1c(=O)c2ccc(C(=O)NC(C)C)cc2n2c(=O)n(CC(=O)c3cc(C)ccc3C)nc12 | i
O=C(c1cccc(F)c1F)N1CCCC2(CCNCC2)CC1 | i
CCCn1c(=O)c2ccc(C(=O)NC(C)CC)cc2n2c(=O)n(CC(=O)NCc3ccccc3)nc12 (centres undefined) | i
C/C=C(\C)C(=O)O[C@H]1C[C@](C)(O)[C@H]2CC=C(C)[C@H]2[C@@H]2OC(=O)[C@H](C)[C@H]21 | i
CNC(=O)c1noc(CN2CCCC(CCc3ccccc3F)C2)n1 (centres undefined) | i
C=C1C(=O)O[C@@H]2[C@H]1CCC(C)=C(CCC(=O)O)[C@@]2(C)O | i
O=C(O[C@@H]1O[C@H](CO)[C@@H](O)[C@H](O)[C@H]1O)c1ccccc1 | i
CCOc1ccc(CCNC(=O)CCCn2ccc3cc(S(=O)(=O)N4CCCC4)ccc32)cc1 | i
Cn1c(CN2CCN3C(=O)NC[C@H]3C2)nc2ccccc21 | i
CN1CCN(c2cc(N3CCCC(CN4CCCCC4)C3)nc(N)n2)CC1 (centres undefined) | i
CCCn1c(=O)c2ccccc2n2c(=O)n(CC(=O)Nc3ccc4c(c3)OCCO4)nc12 | i
COc1ccccc1-c1ccc(-c2cn(C(=O)N3CCCCC3Cc3ccccc3)nn2)cc1 (centres undefined) | i
COc1cccc(CN2C(=O)c3ccc(-c4ccco4)n3CC2(C)C(=O)NC2CCCCCCC2)c1 (centres undefined) | i
Fc1ccc(C2Nc3ccc(Cl)cc3C3C=CCC32)cc1 (centres undefined) | i
Cc1nc(C)c(C(=O)N2CCCCCCNC(=O)CC2)s1 | i
Cc1ccc(C2Nc3c(ccc(C(=O)O)c3C)C3C=CCC32)cc1 (centres undefined) | u

Some of the compounds tested; count on the stated rates, not on these rows.
